# PABP polyA inh: blocks human PABP binding to poly(A) RNA; P11940; fluorescence polarization; inhibition, % at 35 µM; hit rate 1% among 290,000; AID 2014;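 active means 50% or more with normal probe brightness, or confirmed in later tests; about a fifth of its hits are not listed in these tables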;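 further: calls also rest on retests at 20 µM and on dose response follow-up; controls were probe without protein and protein plus probe with vehicle; some compounds called inactive have numbers as strong as hits; many hits fall short of the cut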
# Target sequence (P11940 whole entry, looked up): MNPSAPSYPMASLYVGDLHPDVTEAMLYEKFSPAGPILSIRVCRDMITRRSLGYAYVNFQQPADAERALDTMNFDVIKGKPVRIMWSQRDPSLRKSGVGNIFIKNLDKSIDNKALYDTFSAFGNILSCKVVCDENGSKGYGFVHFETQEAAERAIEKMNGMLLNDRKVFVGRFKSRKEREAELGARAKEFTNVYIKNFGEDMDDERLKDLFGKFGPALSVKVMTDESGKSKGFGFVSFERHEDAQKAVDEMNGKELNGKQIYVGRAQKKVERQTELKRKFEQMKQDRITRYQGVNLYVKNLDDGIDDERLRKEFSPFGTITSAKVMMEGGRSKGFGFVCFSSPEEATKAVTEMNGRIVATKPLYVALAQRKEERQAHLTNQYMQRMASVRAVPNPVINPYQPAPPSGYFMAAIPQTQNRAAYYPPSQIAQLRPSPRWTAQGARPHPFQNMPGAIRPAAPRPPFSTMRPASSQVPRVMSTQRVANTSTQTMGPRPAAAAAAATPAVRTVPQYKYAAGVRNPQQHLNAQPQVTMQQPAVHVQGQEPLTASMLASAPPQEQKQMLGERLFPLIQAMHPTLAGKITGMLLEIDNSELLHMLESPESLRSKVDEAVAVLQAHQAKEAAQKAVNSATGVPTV
# Yeast UUG start: alters start codon recognition fidelity in yeast; activity score, % at 18.7 µM; hit rate 0.13% among 350,000; S. cerevisiae UUG-firefly luciferase reporter, luminescence/redox ratio;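 active means replicate mean at a twofold rise or more, about +100% in these data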;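 further: firefly luciferase made from a UUG start codon reports start codon fidelity; reporter light over untreated wells divided by growth signal over untreated wells; some hits fall short of that in this replicate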
# eIF4H FP inh: inhibitors of RNA binding by human eIF4H | Q15056 | eIF4H fluorescence polarization binding assay | inhibition, % at 35 µM | hit rate 0.94% among 290,000;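 active means 50% or more with normal probe brightness, or confirmed in later tests; about a fifth of its hits are not listed in these tables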;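 further: calls also rest on retests at 20 µM and on dose response follow-up; 0% = protein and probe with vehicle and 100% = probe without protein; strong numbers were not always called active; many hits fall short of the cut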
# MT1-MMP act inh: inhibitors of human MT1-MMP activation; P50281; HT1080 RFP-PRO-GFP cells, GFP/RFP ratio fluorescence, overnight; percent of plate control window, DMSO zero; GFP/RFP ratio change, % at 20 µM; hit rate 0.061% among 360,000;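 active means GFP/RFP ratio change of at least 30% with cell ATP level not reduced by more than half and red fluorescence within 50% of control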; further: strong numbers were not always called active
#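 Assay system: HT1080 RFP-PRO-GFP cells | Dosing: 20 µM single dose, 1% DMSO | Incubation: Cells overnight before dosing, compound overnight, 37 °C, 5% CO2 | Evaluation: GFP/RFP fluorescence ratio | Control set: DMSO-only wells and HT1080 RFP-L50D-GFP cell wells as references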
# Env fusion inh: inhibitors of HIV Env-mediated cell fusion; HeLa-JRFL Env/CEM21 cell fusion, luciferase; inhibition, % at 12.3 µM; hit rate 1.1% among 360,000; AID 651610;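 active means mean replicate inhibition score of at least 50 and every replicate individually at or above 50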;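 further: 0% = plate neutral controls and 100% = maraviroc near 300 nM; one replicate is shown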
# Rce1 inhib: blocks yeast Ras-converting enzyme | AID 2563 | Q03530 | yeast membranes, quenched prenylated peptide cleavage fluorescence | calls only | hit rate 0.27% among 290,000;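 active means fall in fluorescence gain of 50% or more versus controls, with final raw signal at or below 3038400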;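 further: plate controls were neutral control wells for no effect and wells lacking membranes for full effect; tested at 10 µM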
# Target sequence (Q03530 whole entry, looked up): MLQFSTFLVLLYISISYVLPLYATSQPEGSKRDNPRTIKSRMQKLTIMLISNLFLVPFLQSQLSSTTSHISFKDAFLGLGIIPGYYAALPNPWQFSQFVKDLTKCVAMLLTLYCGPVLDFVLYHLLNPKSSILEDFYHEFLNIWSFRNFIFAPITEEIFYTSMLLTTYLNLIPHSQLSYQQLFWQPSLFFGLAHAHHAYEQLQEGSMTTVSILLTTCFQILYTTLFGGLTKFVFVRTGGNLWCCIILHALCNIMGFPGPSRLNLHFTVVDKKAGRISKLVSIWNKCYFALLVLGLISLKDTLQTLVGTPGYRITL
# CSC inhib: cancer stem cell inhibition. hit rate 1.1% among 300,000. inhibition, % at 7.5 µM. cancer stem cell-like cells viability, luminescence;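 active means mean at 75% or more and at least half the replicates too; tested in HMLE shEcad cells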;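 further: 0% = median of negative and 100% = median of positive control wells; the first replicate is given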
# eIF4H FP inh retest: further read-out of eIF4H FP inh, marked with its call; inhibition, %; compound at 20 µM; confirmation average;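 mean of two retest wells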
# PABP polyA inh retest: also measured in PABP polyA inh; calls as there; inhibition, %; compound at 20 µM; confirmation repeats;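 mean of two retest wells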
# MT1-MMP act inh RFP: also measured in MT1-MMP act inh; calls as there; RFP signal change, %; measured here: RFP expression control read;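 0 = vehicle wells; hits needed this value within 50% of zero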
# * hit, by the source's call; i = inactive; . = not tested or not shown; & = joins results of further samples. Not all compounds are listed (hit frequency here may not be typical).
SMILES,PABP polyA inh,Yeast UUG start,eIF4H FP inh,MT1-MMP act inh,MT1-MMP act inh RFP,Env fusion inh,Rce1 inhib,CSC inhib,others
Cc1c(C(=O)OCc2ccccc2)[nH]c2c1C(=O)CC(c1ccco1)C2 (stereo not drawn),0.7*,-10.7,81.1,3.1,-17.4,.,i,61.6,eIF4H FP inh retest=38.7;PABP polyA inh retest=68.3*
O=[N+]([O-])CC1(n2nc3ccccc3n2)CCCCC1,.,-8.8,.,-4.7,-4.6,.,i,2.4,
Cc1ccc(/C(O)=C2/C(=O)C(=O)N(c3ccccn3)C2c2cccc([N+](=O)[O-])c2)cc1 (stereo not drawn),20.0,-19.7,-7.0,0.6,3.2,16.0,i,-2.6,
CN(Cc1cccnc1)Cc1cn(Cc2ccccc2)nc1-c1ccc2c(c1)OCO2,0.9,.,-2.5,-1.7,1.9,7.4,i,-1.7,
O=C(Nc1ccc(S(=O)(=O)N2CCCC2)cc1)Nc1ccc(F)cc1F,-6.9,-25.3,-3.6,-2.6,-2.8,-94.9,i,1.7,
Cc1c(NC(=O)c2ccc3c(c2)OCO3)cccc1-c1nc2ccccc2s1,-4.3,.,1.1,-4.0,-8.1,.,i,25.5,
O=C(O)CCCC(=O)Nc1ccc(C(=O)N2CCCCC2)cc1,-0.8,-13.6,-4.2,-0.7,-2.2,-53.5,i,-13.4,
C=CCOc1c(/C=N\NC(N)=O)cccc1OC,-6.1,-10.8,-4.5,1.6,1.2,-4.5,i,-0.4,
Cn1nnc2cc(C(=O)Nc3ccc(Cl)cc3)ccc21,-3.0,.,-10.9,5.0,1.2,-3.7,i,-9.3,
CCc1nc2n[nH]c(N)c2c2c1CSC(C)(C)C2,3.3,.,-7.3,4.3,0.4,-47.1,i,-5.2,
Cc1cc(=O)oc2c3c(cc(OCC(=O)NC(C)C)c12)OC(C)(C)CC3,0.7,-7.3,10.4,3.4,-0.5,14.4,i,-1.5,
Cc1ccc(C)c(NC(=O)COc2cccc3c2CCN(Cc2ccccc2)C3=O)c1,-8.6,-6.5,-7.7,-0.6,-6.3,13.7,i,47.5,
CCC(C)c1ccc(C(CC)NC(=O)C2CCCO2)cc1 (stereo not drawn),11.2,-9.6,-2.5,1.3,-9.4,21.0,i,6.8,
Cc1cc(F)ccc1S(=O)(=O)NCC(c1ccc2c(c1)OCO2)N1CCOCC1 (stereo not drawn),.,9.6,.,-1.1,-1.7,.,i,-15.3,
Cc1ccc(C)c(S(=O)(=O)N2CCCOC2CNC(=O)C(=O)NCCc2ccccc2)c1 (stereo not drawn),-6.4,-5.7,-13.7,-1.8,-1.8,.,i,11.2,
CCCc1c(C(=O)N/N=C/c2cccc3ccccc23)nnn1-c1nonc1N,6.3,-35.2,-6.3,0.2,-1.2,3.6,i,9.9,
Cn1c(=O)[nH]c(=O)c2c1nc(SCC(=O)Nc1ccccc1)n2Cc1ccccc1,-0.9,7.2,-8.5,-0.9,-0.3,34.6,i,3.2,
C#CCOC(=O)Nc1cccn(Cc2c(Cl)cccc2Cl)c1=O,-1.7,-13.6,-1.2,3.1,-5.5,-138.6,i,45.8,
CCCCCC(=O)Nc1ccc(-c2csc(C)n2)cc1,8.3,.,-5.2,0.1,1.9,-2.4,i,11.4,
COc1ccc(NC2=CC(=O)CC(c3ccccc3)C2)c(OC)c1 (stereo not drawn),-1.7,-9.5,1.2,-61.0,-5.0,.,i,.,
O=C(COC(=O)c1cccc(S(=O)(=O)N2CCCC2)c1)c1ccc(F)cc1,.,-7.5,.,0.7,2.1,-10.7,.,.,
CCN(CC)CC1CN(N=Cc2ccc([N+](=O)[O-])o2)C(=O)O1 (stereo not drawn),.,15.5,.,2.6,-7.5,38.4,.,.,
COc1cccc(NC(=O)C2CCN(C(=O)[C@@H]3Cc4ccccc4CN3C(=O)OC(C)(C)C)CC2)c1,9.4,.,-2.0,-0.4,-0.9,2.8,i,13.4,
COc1ccc(CCNC(=O)c2ccc(CNc3nc(=S)[nH]c4ccccc34)cc2)cc1OC,1.9,.,-5.5,2.1,-12.1,14.5,i,16.4,
COC(=O)CSc1nc2ccccc2c(=O)n1Cc1ccccc1,-1.9,-32.7,-7.4,-3.1,-0.8,23.7,i,-8.1,

# Next section, overlapping the part above by 3 compounds.
SMILES,PABP polyA inh,Yeast UUG start,eIF4H FP inh,MT1-MMP act inh,MT1-MMP act inh RFP,Env fusion inh,Rce1 inhib,CSC inhib,others
COc1cccc(NC(=O)C2CCN(C(=O)[C@@H]3Cc4ccccc4CN3C(=O)OC(C)(C)C)CC2)c1,9.4,.,-2.0,-0.4,-0.9,2.8,i,13.4,
COc1ccc(CCNC(=O)c2ccc(CNc3nc(=S)[nH]c4ccccc34)cc2)cc1OC,1.9,.,-5.5,2.1,-12.1,14.5,i,16.4,
COC(=O)CSc1nc2ccccc2c(=O)n1Cc1ccccc1,-1.9,-32.7,-7.4,-3.1,-0.8,23.7,i,-8.1,
O=C(O)/C=C/C(=O)Nc1ccc(F)cc1F,-6.9,-12.5,-2.0,2.1,3.7,.,i,-20.2,
CN(C)Cc1c(O)ccc2cc(-c3nc4ccccc4n3C)c(=O)oc12,5.1,-29.2,21.3,-40.8,0.9,-45.9,i,1.3,
COc1ccc(-c2nnc(SCc3nc4ccccc4c(=O)[nH]3)o2)cc1,-3.4,-14.1,-16.2,2.5,-1.0,-8.4,i,-11.0,
CCC(C)[C@H](NC(=O)N1CC(=O)Nc2ccccc21)C(=O)N[C@H](Cc1c[nH]c2ccccc12)C(=O)O (stereo partly drawn),9.9,-8.3,4.0,4.6,2.8,.,i,-12.2,
Cc1cccc(COCC(Cc2ccccc2)N2CCN(C(=O)c3cccc(Cl)c3)CCC2=O)c1 (stereo not drawn),-3.3,-4.9,-0.9,-2.4,-3.4,66.2*,i,15.6,
COc1ccc(-c2cc(C(=O)OCC(=O)N(C)C3CCS(=O)(=O)C3)c3ccccc3n2)cc1OC (stereo not drawn),2.3,2.8,3.8,1.2,-2.6,-7.9,i,.,
O=C(Nc1ccc(F)cc1)C1CC(=O)N(Cc2ccco2)C1 (stereo not drawn),7.2,-0.2,-3.7,-2.8,0.5,-1.3,i,-10.4,
CC(=O)N/N=C/C1=CCC2CC1C2(C)C (stereo not drawn),48.3,-14.5,3.0,-0.6,0.2,-33.1,i,-1.2,
COc1ccccc1N1CCN(Cc2cc3c(cc2O)OCO3)CC1,-4.7,-8.6,-6.4,-3.1,1.1,-0.9,i,-3.9,
CC(C(=O)Nc1ccccn1)c1ccccc1 (stereo not drawn),-7.9,-7.1,-0.3,2.3,2.2,4.9,i,-6.1,
O=C(NCc1nnc2c(C(F)(F)F)cc(Cl)cn12)c1cccs1,7.0,-19.1,31.2,2.5,2.6,-4.0,i,2.6,
COc1ccc(Cl)cc1C(=O)NNC(=O)c1cccc([N+](=O)[O-])c1,-7.3,.,3.1,0.1,0.1,-15.6,i,-6.8,
C[C@H](CO)N1C[C@H](C)[C@@H](CN(C)Cc2ccc(C(=O)O)cc2)Oc2ccc(NS(C)(=O)=O)cc2C1=O,.,-3.2&-2.4,.,-4.6,4.7,9.1,.,11.4,
BrC(=C\c1ccccc1)/C=N/N1CCN(c2ccccn2)CC1,16.3,-16.1,-0.2,3.7,1.3,.,i,29.7,
CN(CC(=O)Nc1ccc(F)cc1)C(=O)CSc1ccc2c(c1)OCCO2,.,-9.9,.,0.7,0.9,0.1,.,.,
CCn1nc(C)c(CNCc2cn[nH]c2-c2cc3ccccc3o2)c1C,2.0,3.3,-4.6,13.0,4.3,-0.7,i,-22.1,
CC(=O)c1ccc(NC(=O)C(C)OC(=O)C(C)Oc2cccc(C)c2)cc1 (stereo not drawn),5.1,.,-6.8,-3.8,3.2,.,i,2.1,
CCOC(=O)NCc1ccc(S(=O)(=O)Nc2ccc(C)cc2)cc1,0.1,-11.4,-10.0,6.5,-3.8,6.5,i,-27.1,
Cc1nc2sc(-c3ccccc3)cc2c(=O)[nH]1,-3.4,-28.6,-1.3,5.9,0.9,.,i,11.1,
Cc1ccc(OCC(=O)n2nc(C)cc2C)c(Br)c1,-5.9,.,5.6,-0.3,3.5,.,i,-7.7,
COc1ccc(C(=O)Nc2ccccc2C(=O)NC2CC2)c(OC)c1OC,.,-20.9,.,-1.4,1.1,1.9,.,.,
COc1ccc(S(=O)(=O)NCc2cc(-c3ccccc3Cl)no2)cc1,0.6,.,3.2,4.5,-2.6,13.7,i,8.4,
O=C(NC(=S)NCc1ccccc1)c1ccccc1F,-4.5,-13.6,2.1,5.3,2.8,-67.2,i,-1.9,
N#C/C(=C/c1ccc(F)cc1)C(N)=S,-2.7,.,-4.7,0.2,4.8,7.1,i,10.3,
CSc1cnn(-c2ccccc2)c(=O)c1SC,7.5,-9.2,0.8,0.1,5.7,-36.0,i,-10.9,
# (continued)
SMILES,PABP polyA inh,Yeast UUG start,eIF4H FP inh,MT1-MMP act inh,MT1-MMP act inh RFP,Env fusion inh,Rce1 inhib,CSC inhib,others
COc1cc(/C=C2/N=C(C3CCCCC3)OC2=O)cc(OC)c1OC,14.9,0.4,0.3,1.4,3.7,-45.0,i,-4.2,
CC(=O)OC(C)=O,.,-2.4,.,1.2,7.1,.,.,-14.1,
CCOc1ccc(-n2ccnc2SCC(=O)N2CCCc3ccccc32)cc1,-7.9,.,-8.6,-4.9,-4.4,-12.2,i,1.8,
CCn1nc(C)c(/C=N/NC(=O)c2c[nH]c3ccccc23)c1C,-3.7,-5.8,-0.5,2.8,5.1,-18.5,i,-5.2,
CC(C)NC(=O)C(=O)NCCCOC(C)C,-3.0,-20.5,2.0,-1.4,-0.7,-22.7,i,-7.4,
O=C(Nc1cccnc1)/C(N=Nc1c(Cl)cccc1Cl)=C(\O)c1ccccc1,2.0,.,-6.1,-5.6,-5.6,14.0,i,12.4,
CCc1nnc(NC(=O)Cc2ccc(OC)c(OC)c2)s1,-4.8,.,5.7,2.2,-0.5,-8.4,i,-13.6,
O=[N+]([O-])c1ccc(N/N=C/c2cccc(O)c2O)cc1,-1.4,-10.3,-5.4,1.1,-17.9,-35.8,i,95.6*,
CC(=O)NCCn1c(SCC(=O)c2ccccc2)nc2ccccc2c1=O,-7.4,-5.7,-6.0,21.3,4.3,-46.2,i,6.6,
O=C1CC(c2cccc(Cl)c2)C(n2cncn2)C(=O)C1C1NCCc2ccccc21 (stereo not drawn),14.1,-7.7,4.7,-4.3,1.7,-23.7,i,2.2,
CN(Cc1cccs1)C(=O)CCCc1c[nH]c2ccccc12,-12.1,.,-2.3,-0.2,-6.8,-33.6,i,8.4,
CCCNC(=O)c1cc(S(=O)(=O)N2CCC3(CC2)OCCO3)ccc1F,.,-6.9,.,9.4,-4.8,-3.2,.,.,
Cc1nc2c(C)cccn2c1/C(O)=C1\C(=O)C(=O)N(CCN(C)C)C1c1cccs1 (stereo not drawn),.,-21.8,.,3.3,8.1,0.9,.,.,
COc1ccc(S(=O)(=O)N2CCOC2CNC(=O)C(=O)NCCc2ccccc2)cc1 (stereo not drawn),0.5,-7.8,-6.9,0.0,-1.8,.,i,-5.6,
Cc1cc(C(=O)NC(=S)Nc2ccccc2N2CCCC2)ccc1[N+](=O)[O-],-0.3,1.0,-5.4,-4.4,0.5,23.0,i,-0.1,
COC(=O)c1ccccc1NC(=O)COc1ccccc1[N+](=O)[O-],5.6,.,-1.6,-3.7,-2.6,8.1,i,0.2,

# Quoted at random: 2 records from the list
SMILES,PABP polyA inh,Yeast UUG start,eIF4H FP inh,MT1-MMP act inh,MT1-MMP act inh RFP,Env fusion inh,Rce1 inhib,CSC inhib,others
Cc1ccc(OCC(=O)n2nc(C)cc2C)c(Br)c1,-5.9,.,5.6,-0.3,3.5,.,i,-7.7,
CC(=O)NCCn1c(SCC(=O)c2ccccc2)nc2ccccc2c1=O,-7.4,-5.7,-6.0,21.3,4.3,-46.2,i,6.6,

# Assay outcomes as filed in PubChem BioAssay.
